UUG fidelity: yeast start codon fidelity modulation | S. cerevisiae UUG-firefly luciferase reporter, luminescence/redox ratio | activity score, % at 18.7 µM | 0.13% of 350,000 active;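 active = replicate mean at a twofold rise or more, about +100% in these data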;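 note: firefly luciferase made from a UUG start codon reports start codon fidelity; reporter light over untreated wells divided by growth signal over untreated wells; some hits fall short of that in this replicate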
CSC inhib: cancer stem cell inhibition; cancer stem cell-like cells viability, luminescence; inhibition, % at 7.5 µM; 1.1% of 300,000 active; AID 2717;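 active = mean at 75% or more and at least half the replicates too; tested in HMLE shEcad cells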;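 note: 0% = median of negative and 100% = median of positive control wells; the first replicate is given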
Rce1 inh: blocks yeast Ras-converting enzyme; yeast membranes, quenched prenylated peptide cleavage fluorescence; calls only; 0.27% of 290,000 active; AID 2563;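 active = fall in fluorescence gain of 50% or more versus controls, with final raw signal at or below 3038400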;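 note: plate controls were neutral control wells for no effect and wells lacking membranes for full effect; tested at 10 µM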
Target sequence (Q03530 whole entry, looked up): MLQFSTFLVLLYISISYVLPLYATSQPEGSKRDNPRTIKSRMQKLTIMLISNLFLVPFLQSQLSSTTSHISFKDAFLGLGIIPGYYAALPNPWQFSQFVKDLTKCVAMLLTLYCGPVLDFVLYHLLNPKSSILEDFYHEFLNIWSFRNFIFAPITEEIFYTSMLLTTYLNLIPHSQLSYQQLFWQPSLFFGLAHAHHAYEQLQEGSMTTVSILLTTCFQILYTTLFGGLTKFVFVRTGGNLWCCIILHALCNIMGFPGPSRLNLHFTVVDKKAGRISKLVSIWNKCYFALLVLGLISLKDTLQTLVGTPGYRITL
PABP FP inh: PABP-poly(A) binding inhibition | P11940 | PABP-poly(A) RNA binding, fluorescence polarization | inhibition, % at 35 µM | 1% of 290,000 active | AID 2014;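 active = 50% or more with normal probe brightness, or confirmed in later tests; about a fifth of its hits are not listed in these tables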;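 note: calls also rest on retests at 20 µM and on dose response follow-up; controls were probe without protein and protein plus probe with vehicle; some compounds called inactive have numbers as strong as hits; many hits fall short of the cut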
eIF4H inh: inhibitors of RNA binding by human eIF4H. AID 2012. eIF4H fluorescence polarization binding assay. Q15056. inhibition, % at 35 µM. 0.94% of 290,000 active;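 active = 50% or more with normal probe brightness, or confirmed in later tests; about a fifth of its hits are not listed in these tables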;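 note: calls also rest on retests at 20 µM and on dose response follow-up; 0% = protein and probe with vehicle and 100% = probe without protein; strong numbers were not always called active; many hits fall short of the cut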
Env fusion inh: blocks HIV Env-driven cell-cell fusion. HeLa-JRFL Env/CEM21 cell fusion, luciferase. inhibition, % at 12.3 µM. AID 651610. 1.1% of 360,000 active;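 active = mean replicate inhibition score of at least 50 and every replicate individually at or above 50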;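 note: 0% = plate neutral controls and 100% = maraviroc near 300 nM; one replicate is shown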
MT1-MMP act inh: blocks activation of human MT1-MMP. P50281. HT1080 RFP-PRO-GFP cells, GFP/RFP ratio fluorescence, overnight; percent of plate control window, DMSO zero. GFP/RFP ratio change, % at 20 µM. 0.061% of 360,000 active. AID 651647;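 active = GFP/RFP ratio change of at least 30% with cell ATP level not reduced by more than half and red fluorescence within 50% of control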; note: strong numbers were not always called active
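Assay system – RFP-PRO-GFP reporter HT1080 cells · Compound dosing – single dose of 20 µM compound, 1% DMSO final · Incubation – overnight compound exposure at 37 °C · Measure – GFP/RFP fluorescence ratio · Benchmarks – DMSO wells and RFP-L50D-GFP cells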
eIF4H inh retest: recorded beside eIF4H inh, whose call it bears; inhibition, %; compound at 20 µM; confirmation average;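 mean of two retest wells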
PABP FP inh retest: further read-out of PABP FP inh, marked with its call; inhibition, %; compound at 20 µM; confirmation repeats;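 mean of two retest wells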
MT1-MMP act inh RFP: further read-out of MT1-MMP act inh, marked with its call; RFP signal change, %; measured here: RFP expression control read;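 0 = vehicle wells; hits needed this value within 50% of zero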
* marks the source's active call; other numbers are inactive results; i = inactive; x = no result given; & = joins results of further samples.

SMILES | UUG fidelity | CSC inhib | Rce1 inh | PABP FP inh | eIF4H inh | Env fusion inh | MT1-MMP act inh | MT1-MMP act inh RFP | others
COc1ccc(-c2cc(C(F)(F)F)nc(SCCC(=O)N3CCOCC3)n2)cc1 | x | -9 | i | 6 | 3 | x | -2 | 2
O=C(COc1ccccc1Cl)Nc1ccccc1C(=O)N1CCCCC1 | 6 | -7 | i | -11 | -17 | -17 | 1 | -1
C=CCn1c(=N)c(S(=O)(=O)c2ccc(C)c(C)c2)cc2c(=O)n3ccccc3nc21 | -12 | 19 | i | 4 | 10 | 15 | 1 | 1
COc1ccc(OCc2ccc(-c3nc4ccccc4c(=O)n3N)o2)cc1 | -5 | 0 | i | -4 | 2 | x | 1 | -2
O=C(Cn1nc(Cc2cccnc2)c2ccccc2c1=O)NCc1ccc(F)cc1 | -27 | 0 | i | -8 | -2 | x | 4 | 2
COC(=O)N(C)C[C@@H]1OCc2cnnn2CCCC(=O)N([C@@H](C)CO)C[C@H]1C | -13&-7 | x | x | x | x | -3 | 1 | 3
O=C(Nc1ccc(F)cc1)Nc1ccccc1C(=O)NCCN1CCNC1=O | -20 | -17 | i | -4 | -2 | 2 | -2 | 0
COc1ccc(C(=O)N(NC(=O)Oc2ccccc2)C(C)(C)C)cc1 | -13 | -1 | i | 34 | -7 | 10 | x | x
O=C(c1c[nH]c(C(=O)C(Cl)(Cl)Cl)c1)c1ccccc1Cl | x | -5 | i | -7 | -4 | x | 1 | 8
O=C(O)C(Oc1ccc2c(c1)oc(=O)c1ccccc12)c1ccccc1 (stereo unspecified) | -15 | 4 | i | -12 | 3 | -7 | 1 | -3
Cc1ccnc(N2CCC(C(=O)Nc3nnc(C)s3)CC2)n1 | -14 | -4 | i | 10 | 9 | -24 | 2 | 5
COc1ccccc1C1=NOC(COC(=O)c2ccc([N+](=O)[O-])cc2)C1 (stereo unspecified) | -12 | 2 | i | -7 | -6 | -3 | -1 | -1
CC(C)OC(=O)CSc1nnc(-c2cnccn2)n1-c1ccc(Cl)cc1 | -16 | 3 | i | -2 | -8 | 12 | 1 | 2
CCOc1ccc(Nc2ncnc3ccc([N+](=O)[O-])cc23)cc1 | x | 7 | x | 4 | 11 | 38 | -19 | -11
O=C(NCC(=O)N(CCN1CCOCC1)C(C(=O)NC1CCCC1)c1ccccc1)c1cccs1 (stereo unspecified) | -13 | -12 | i | -5 | -12 | -23 | 5 | 2
CCOC(=O)CN1C(=O)C(C)(C)Oc2ccc(C(=O)NC(C)(C)CC)cc21 | -13 | 10 | i | 2 | -5 | -83 | 4 | 2
CC1=C(OC(=O)c2ccccc2)C(C)(C)C(c2ccc(Br)cc2)OC1=O (stereo unspecified) | -5 | -2 | i | 0 | -15 | x | -3 | -5
Cc1cccnc1Oc1ncccc1N | -12 | 0 | i | x | x | -2 | 4 | 4
CCN(c1ccccc1)S(=O)(=O)c1ccc(Oc2ccccc2C(C)=O)nc1 | -7 | -10 | x | x | x | x | 1 | -6
O=C(Nc1ccc(NS(=O)(=O)c2ccc([N+](=O)[O-])cc2)cc1)c1ccco1 | 9 | -3 | i | 6 | 3 | -4 | 0 | 1
Cc1cc(C(=O)N(C)Cc2c(F)cccc2Cl)c2ccccc2n1 | 0 | -1 | i | -1 | -8 | 25 | -7 | -15
O=C(NC12CC3CC(CC(C3)C1)C2)N1CCN(c2ccccc2)CC1 | -24 | -8 | i | -3 | -2 | -74 | 2 | 0
O=C(Nc1ccc(F)cc1)N1CCN(c2nc3ccccc3s2)CC1 | x | -4 | i | 0 | -2 | x | 7 | -17
COc1cccc(CN2CCNC(=O)C2CC(=O)NCc2cn3cccc(C)c3n2)c1OC (stereo unspecified) | x | 2 | i | 6 | -4 | 31 | -2 | -1
CC(C)CC(=O)N1CCN(c2ccc(NC(=O)c3ccco3)cc2)CC1 | -7 | -21 | i | -1 | -7 | 5 | 3 | 1

The list continues:
SMILES | UUG fidelity | CSC inhib | Rce1 inh | PABP FP inh | eIF4H inh | Env fusion inh | MT1-MMP act inh | MT1-MMP act inh RFP | others
CNC(=O)c1c(NC(=O)c2ccc3ncsc3c2)sc(C)c1C | -15 | x | i | x | x | 5 | -1 | 3
CC1CCCN(C(=O)c2ccc3c(=O)n(C4CCCC4)c(=S)[nH]c3c2)C1 (stereo unspecified) | -15 | 30 | i | 7 | 0 | 50 | -5 | -23
O=C(NCc1cccnc1)/C(=N\O)c1ccccc1 | 0 | -5 | i | -6 | -6 | x | 7 | 9
C=CCn1c(SCC(=O)N(C)C2CCS(=O)(=O)C2)nnc1-c1ccccc1 (stereo unspecified) | x | -18 | i | x | x | -3 | -1 | 0
COC(=O)c1ccc(NC(=O)COc2ccc3c(c2)OCO3)cc1 | x | 15 | i | 8 | -1 | -11 | 2 | 3
COc1ccc(CCNC(=O)CSc2nc(C)cs2)cc1 | x | -4 | i | -4 | -1 | -8 | -2 | 4
Cc1ccc(N(CCC#N)C(=O)CSc2nnc3ccccn23)cc1 | -20 | x | x | x | x | 3 | 0 | 1
CCOC(=O)c1c(C)[nH]c(C(=O)OC(C)C(=O)NC2CCCCC2C)c1C (stereo unspecified) | -8 | -2 | x | x | x | x | -1 | -6
CCOc1ccc(-c2nnc(SCC(=O)N(CC)CC)n2N)cc1 | -15 | 4 | i | -5 | 4 | 4 | 1 | 2
O=C(Nc1cccc(S(=O)(=O)N2CCCC2)c1)c1cc(-c2ccccn2)nc2ccccc12 | -19 | 4 | i | -1 | -3 | 6 | 3 | 3
COc1cc(C(=O)NC(=S)Nc2ccccc2[N+](=O)[O-])cc(OC)c1OC | -25 | -8 | i | -7 | -2 | -8 | 21 | -4
Cc1noc(C)c1S(=O)(=O)N1CCC(C(=O)N2CCN(c3ccc(Cl)cc3)CC2)CC1 | -6 | -12 | i | -2 | 0 | 42 | -1 | -6
O=C(O)c1oc2ccccc2c1CSCc1ccccc1 | -10 | -18 | i | 10 | -4 | 12 | 0 | 1
Cc1cc(OCC(=O)Nc2ccncc2)ccc1Br | -7 | 32 | i | -6 | -2 | x | -3 | -12
Fc1ccc(N2CCN(C(c3cccs3)c3nnnn3C3CCCC3)CC2)cc1 (stereo unspecified) | -8 | 10 | i | -2 | 10 | -51 | -5 | -7
Cc1nc(SCC(=O)Nc2ccc(C)c(F)c2)c2oc3ccccc3c2n1 | -22 | 26 | i | 5 | 0 | x | 2 | 0
Cc1cccc(C(=O)O/N=C(\N)Cc2cccc3ccccc23)c1 | -27 | -12 | i | 4 | 13 | x | 3 | 11
Cc1ccc(NC(=O)CSC(C)C(=O)OCC(=O)N2CCN(C(=O)c3ccco3)CC2)cc1 (stereo unspecified) | -14 | -3 | i | x | x | -8 | 1 | 2
CC1(C)CC2CC(C)(CN2C(=O)c2ccccc2)C1 (stereo unspecified) | x | -1 | i | 10 | -2 | -1 | -2 | -5
O=C(O)CCC(NC(=O)OCc1ccccc1)C(=O)O (stereo unspecified) | -14 | -10 | i | 11 | 2 | x | 4 | 2
O=C(Nc1nnc(-c2cccnc2)o1)c1ccccc1Cl | 15 | -5 | i | -9 | -2 | -10 | 2 | 3
CCCS(=O)(=O)N1CCCC(C(=O)NCCCN(C)Cc2ccccc2)C1 (stereo unspecified) | -4 | -8 | i | -6 | 0 | x | 3 | 6
O=C(O)c1ccc2c(c1)CCC2 | -19 | -19 | i | 54* | 3.3* | 19 | 0 | 3 | eIF4H inh retest=94*;PABP FP inh retest=63*
O=C(CCc1nc2ccccc2[nH]c1=O)OCC(=O)N1CCc2ccccc21 | -5 | -13 | i | -4 | -8 | -159 | 6 | 10
Cc1ccn2cc(C(=O)N3CCCC(Nc4ccc(F)cc4)C3)nc2c1 (stereo unspecified) | -15 | 1 | i | 3 | -7 | -6 | -2 | 0

The list goes on; it opens with the six that closed the last part.
SMILES | UUG fidelity | CSC inhib | Rce1 inh | PABP FP inh | eIF4H inh | Env fusion inh | MT1-MMP act inh | MT1-MMP act inh RFP | others
O=C(O)CCC(NC(=O)OCc1ccccc1)C(=O)O (stereo unspecified) | -14 | -10 | i | 11 | 2 | x | 4 | 2
O=C(Nc1nnc(-c2cccnc2)o1)c1ccccc1Cl | 15 | -5 | i | -9 | -2 | -10 | 2 | 3
CCCS(=O)(=O)N1CCCC(C(=O)NCCCN(C)Cc2ccccc2)C1 (stereo unspecified) | -4 | -8 | i | -6 | 0 | x | 3 | 6
O=C(O)c1ccc2c(c1)CCC2 | -19 | -19 | i | 54* | 3.3* | 19 | 0 | 3 | eIF4H inh retest=94*;PABP FP inh retest=63*
O=C(CCc1nc2ccccc2[nH]c1=O)OCC(=O)N1CCc2ccccc21 | -5 | -13 | i | -4 | -8 | -159 | 6 | 10
Cc1ccn2cc(C(=O)N3CCCC(Nc4ccc(F)cc4)C3)nc2c1 (stereo unspecified) | -15 | 1 | i | 3 | -7 | -6 | -2 | 0
O=C(N/N=C/c1cccc([N+](=O)[O-])c1)c1cccc(Br)c1 | x | 16 | i | 0 | 9 | -22 | 4 | 3
O=C(CCc1nnc(C2CCCCC2)o1)NCCCOc1cccnc1 | x | -26 | i | 4 | -11 | -1 | 1 | 7
CCc1cc(/C(Cc2ccccn2)=N\Nc2ccccc2)c(O)cc1O | x | -4 | i | -6 | 5 | -14 | 1 | 1
O=C(c1ccccc1-c1nc(-c2ccc(F)cc2)no1)N1CCCC1 | -14 | -14 | i | -5 | -5 | x | 3 | 1
COCCN(C(=O)c1ccccc1F)c1nnc(-c2ccc(OC)cc2)s1 | -1 | 7 | i | -4 | 71 | 0 | 4 | -2 | eIF4H inh retest=-10;PABP FP inh retest=14
COCCCNC(=O)CCCn1c(=O)c2ccccc2n(Cc2cccc([N+](=O)[O-])c2)c1=O | -9 | -17 | i | -9 | 4 | 9 | 3 | 1
Cc1cc(C)c(Nc2ncnc(N)n2)c(C)c1 | -16 | x | i | -3 | -5 | 18 | -2 | 0
O=C(Cc1ncc(C(F)(F)F)cc1Cl)NNc1cccc(F)n1 | x | 0 | i | 11 | 6 | 20 | 4 | 6
COc1ccc(-c2ccnc(-c3ccc(O)cc3)n2)cc1 | x | -7 | i | -1 | 1 | -8 | -5 | -13
COc1ccc(CC(=O)OCc2csc(CC(=O)Nc3ccc(C)cc3)n2)cc1 | -15 | -3 | x | x | x | 16 | 2 | 3
O=C(O)C1C2C=CC(O2)C1C(=O)NCCc1cccc(Cl)c1 (stereo unspecified) | -2 | -10 | i | -3 | 4 | 4 | 1 | 7
O=C(C1CC(=O)N(C2CCCC2)C1)N1CCN(c2ccccc2F)CC1 (stereo unspecified) | -9 | -13 | i | 1 | 10 | -27 | -3 | 1
CC(NCC(=O)NC(=O)NC1CCCC1)c1ccc(Cl)cc1Cl (stereo unspecified) | 8 | -2 | i | x | x | 1 | -5 | -7
CC(=O)Nc1ccc(NC(=O)CCNS(=O)(=O)c2cccc3nsnc23)cc1 | x | -11 | x | -7 | -9 | x | 2 | 1
CCCc1cc(=O)oc2c(C)c(OC(C)C(=O)NCCN3CCOCC3)ccc12 (stereo unspecified) | -3 | 13 | i | x | x | 10 | 2 | 2
COC(=O)c1cc(-c2ccccc2)nc2nc(SC)[nH]c(=O)c12 | -33 | -12 | i | 5 | -4 | -7 | -1 | 0
CCN(CC)C(=O)CCSc1nnc(-c2ccco2)o1 | x | -8 | i | 6 | -7 | 2 | 1 | 3
S=C(Nc1ccccn1)NC1CCCC1 | x | 0 | i | -6 | -1 | 0 | 3 | 7
CC(=O)N(/N=C1\Sc2ccccc2C1=O)c1cccc(C)c1 | -8 | 17 | i | 7 | -1 | x | -13 | -2
CC(=O)Nc1ccc(S(=O)(=O)NC2(C(F)(F)F)C(=O)Nc3c2c(=O)[nH]c(=O)n3C)cc1 (stereo unspecified) | -21 | -10 | i | 7 | -10 | -50 | 3 | 1

Assay outcomes from PubChem BioAssay.
